Source: PubChem BioAssay (several laboratories)
RecA intein inh – inhibitors of M. tuberculosis RecA intein splicing. P9WHJ3. cell-free RecA intein splicing, fluorescence. inhibition, %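 (about 9 µM by stock and volumes)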. 290,000 compounds, 0.75% hits. AID 2221; in the data active = inhibition above about 30%;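 note: 0% = vehicle wells and 100% = reference inhibitor control wells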
Target sequence (P9WHJ3 whole entry, looked up): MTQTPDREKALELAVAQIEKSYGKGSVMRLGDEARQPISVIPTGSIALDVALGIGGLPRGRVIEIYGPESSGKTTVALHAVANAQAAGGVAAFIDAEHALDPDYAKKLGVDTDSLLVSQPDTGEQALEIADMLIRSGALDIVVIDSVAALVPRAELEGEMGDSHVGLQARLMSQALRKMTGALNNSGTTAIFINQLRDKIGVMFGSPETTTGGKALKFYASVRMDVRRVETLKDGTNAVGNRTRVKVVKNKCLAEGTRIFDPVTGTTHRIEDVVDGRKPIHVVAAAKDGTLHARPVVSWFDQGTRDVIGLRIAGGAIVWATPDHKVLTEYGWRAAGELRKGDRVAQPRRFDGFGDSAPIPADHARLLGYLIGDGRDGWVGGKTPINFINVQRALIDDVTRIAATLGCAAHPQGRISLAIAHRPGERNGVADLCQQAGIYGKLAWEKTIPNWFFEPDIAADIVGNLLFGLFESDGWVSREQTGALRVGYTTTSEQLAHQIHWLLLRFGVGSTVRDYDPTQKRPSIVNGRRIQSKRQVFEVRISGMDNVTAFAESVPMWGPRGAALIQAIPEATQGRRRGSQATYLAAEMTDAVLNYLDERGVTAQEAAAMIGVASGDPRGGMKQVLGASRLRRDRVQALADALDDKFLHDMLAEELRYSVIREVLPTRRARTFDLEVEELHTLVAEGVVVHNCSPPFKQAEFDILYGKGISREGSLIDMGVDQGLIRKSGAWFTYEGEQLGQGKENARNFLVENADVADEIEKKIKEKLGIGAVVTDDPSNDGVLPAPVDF
Mtb growth – M. tuberculosis H37Rv growth inhibitors, H37Rv strain (AID 1626); M. tuberculosis H37Rv growth inhibition; higher % means a stronger effect; 220,000 compounds, 0.95% hits; one-dose inhibition, % at 10 µM; IC50 in µM for titrated hits;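 active = confirmed in a dose series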;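 note: bacteria incubated seven days before Alamar blue readout; 0% = bacteria only wells and 100% = bacteria with antibiotic wells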
YopH PTP inh – inhibitors of Yersinia enterocolitica YopH tyrosine phosphatase | fluorescence Ex485/Em525 | 140,000 compounds, 0.16% hits | inhibition, %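 (about 10 µM by stock and volumes)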;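 active = inhibition of 50% or more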;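 note: controls were vehicle for no effect and minimum signal wells for full effect; inactives centre near -20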
Arbovirus inh – antivirals against arbovirus infection. arbovirus infection cell-based antiviral screen. inhibition, % at 10 µM. 200,000 compounds, 0.37% hits. AID 1251;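 active = inhibition from about 30%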;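 note: bluetongue infection of BSR cells; cell survival read as ATP light after 72 h; 0% = infected wells without compound and 100% = uninfected wells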
Mtb betalactam – beta-lactam sensitization of Mtb H37Rv; inhibition, % at 25 µM; AID 434955; 330,000 compounds, 0.27% hits; M. tuberculosis H37Rv growth with meropenem, percent inhibition; hits of this screen are not shown here;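 active = about 74% or more and at least 40 points above the plate without the antibiotic, then above 30% in a dose series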;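 note: growth measured after seven days incubation then overnight dye step; 0% = bacteria only wells and 100% = bacteria with antibiotic; twin plates without the antibiotic show which effects depend on it; some results filed as inactive read as strong as hits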
Arbovirus inh repeat – also measured in Arbovirus inh; calls as there; inhibition, %; measured here: 10K subset replicate screen; many hits read low in the repeat;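 first of two repeat runs on a subset; 0% = infected and 100% = uninfected wells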
* = called active by the depositor; · = no result given. Only part of the results is shown. The share of hits here may be higher or lower than overall.

SMILES	RecA intein inh	Mtb growth	YopH PTP inh	Arbovirus inh	Mtb betalactam	others
CCOC(=O)C(C)Oc1ccsc1C(=O)OC (centres undefined)	1.9	-5%	-35	0	0
CCOC(=O)N1CCN(C(=O)c2ccccc2SCC(=O)NCC2CCCCC2)CC1	-5.4	·	·	·	-1
CCN(CC)S(=O)(=O)c1ccc(C(=O)NN(C)C2=NS(=O)(=O)c3ccccc32)cc1	-7.9	·	·	·	2
O=C1CSC(=Nc2cccc(C(=O)O)c2)N1	-1.5	·	·	·	7
O=C(CCc1ccccc1)N=C1SC2CS(=O)(=O)CC2N1Cc1ccc(F)cc1 (centres undefined)	1.1	·	·	·	-2
CC(=O)c1cccc(Nc2c([N+](=O)[O-])c(=O)oc3ccccc23)c1	4.5	-4%	·	·	4
CCN(CC(=O)Nc1ccccc1C(F)(F)F)C(=O)c1ccccc1SCC(=O)N1CCCC1	3.3	·	·	·	-9
CCOc1cc(NC(=S)Nc2ccccc2)c(OCC)cc1NC(=O)c1ccc(OC)cc1	-1.7	15%	-47	6	-1
Cc1cc(Cl)ccc1OCCCC(=O)NN	9.4	-2%	·	-11	12
O=C(c1ccccc1)N1CCN=C1c1ccccc1	-1.5	2%	-29	2	-6
CC(C)CCN(C)C1CCN(S(=O)(=O)c2cccc(C(F)(F)F)c2)CC1	-0.3	·	-22	-7	-5
O=C(Nc1nnc(-c2cccs2)s1)C1CC1	3.5	-3%	·	0	-5
Cc1cccc(N/C(N)=N/c2nc(C(F)(F)F)cc(=O)[nH]2)c1C	-1.3	-4%	-5	0	1
COc1ccc(C(=O)NNC(=S)NC(=O)c2cc(-c3ccccc3)nc3ccccc23)cc1	1.1	·	-47	-13	51
CCC(=O)N(CCc1ccccc1)Cc1cc2ccc(OC)cc2[nH]c1=O	0.0	·	·	·	-1
CC1CC(C)CN(C(=O)CCn2c(=O)oc3ccccc32)C1 (centres undefined)	-5.3	·	·	·	-10
C=CCn1c(N2CCCC2)nc2c1c(=O)[nH]c(=O)n2C	0.2	11%	5	3	14
Cc1cc(C)n(-c2cccc(CN(C)Cc3nc(-c4cnccn4)no3)c2)n1	0.0	8%	·	3	-4
COc1ccc(C(CC(=O)Nc2cc(OC)cc(OC)c2)n2cccc2)cc1 (centres undefined)	7.6	40%	-16	-11	85
O=C(c1cc(-c2ccccc2)nc2ccccc12)N1CCCC1	-1.4	·	·	·	3
O=C(C1CCN(S(=O)(=O)c2ccc(-n3cnnn3)cc2)CC1)N1CCN(c2ccccc2)CC1	1.1	-5%	-22	3	-6
Cc1csc2nc(=O)c3ccccc3n12	2.4	-6%	19	12	·
COC(=O)c1c(NC(=O)c2cccnc2)sc(C)c1C	-0.1	-6%	-13	-2	18
Cc1nc2c(C(=O)N3CCOCC3)cnn2c(C)c1Cc1ccc(Cl)cc1	2.6	-7%	-43	4	3
COc1ccc(Cl)cc1S(=O)(=O)N1CCCc2ccccc21	5.2	·	·	·	5
Cc1cc(NC(=O)Nc2cc(Cl)ccc2C)no1	2.8	-5%	·	·	0
Cc1nnc2c3ccccc3c(Cl)nn12	-0.5	-1%	·	0	9
Cc1cccnc1NC(=O)c1ccc2nc(N)sc2c1	-0.8	0%	-9	0	0
CC1CN=C(c2cccn2Cc2ccc(F)cc2Cl)O1 (centres undefined)	2.5	·	-24	-2	1
CCN1CCCC1Cn1cnc2c([nH]c3cc(OC)ccc32)c1=O (centres undefined)	1.0	19%	-15	4	5
O=C(O)CNS(=O)(=O)c1ccc2c3c(cccc13)C(=O)N2	-103	·	·	·	0
CN(CC(=O)Nc1ccc(Cl)c(C(F)(F)F)c1)C(=O)c1cn2ccccc2n1	2.7	·	·	·	-6
COc1ccc(Cc2nc3ccc(C(=O)N(C)CCO)cc3o2)cc1	-1.5	·	·	·	-8
COc1ccc(CC(O)COS(N)(=O)=O)cc1 (centres undefined)	-0.1	·	·	·	-10
CCOC(=O)CN(C(=O)CSc1nnc(COc2ccc(OC)cc2)n1C)c1ccccc1	2.5	-4%	-7	6	5
COc1ccc(N2C(=O)C3CCCN3C2c2cccs2)cc1 (centres undefined)	-0.1	-3%	-2	0	2
CCN(CC)CCN(Cc1cc2ccc(C)cc2[nH]c1=O)C(=O)Nc1ccc(Cl)cc1	-0.9	3%	·	-29	12
COc1ccccc1CNC(=O)COc1ccc(S(=O)(=O)N2CCOCC2)cc1C	1.9	·	·	·	-6
O=C(NCC1(N2CCOCC2)CCCCC1)c1ccc(S(=O)(=O)Nc2ccccc2F)cc1	-2.6	·	·	·	-3
COc1ccc(CN(Cc2cccn2C)S(=O)(=O)c2ccc(C)cc2)cc1	4.9	14%	·	·	8
COc1ccc(C(CNC(=O)c2ccc(N3CCCC3=O)cc2)N(C)C)cc1 (centres undefined)	-1.5	1%	-19	-8	-10
O=C(CNC(=O)c1ccccc1)NCC1COc2ccccc2O1 (centres undefined)	2.0	-1%	-15	6	6
Cc1onc(-c2ccccc2)c1C(=O)OCC(=O)N(C)c1c(N)n(Cc2ccccc2)c(=O)[nH]c1=O	-0.4	·	·	·	-14
COc1ccccc1CNCC(=O)N1CC(=O)Nc2ccccc21	-1.0	-1%	·	6	0
CC(=O)Nc1ccc(N(C(=O)CNC(=O)c2ccco2)C(C(=O)NC2CCCC2)c2ccco2)cc1 (centres undefined)	0.9	·	·	·	1
Cc1ccc(CC(=O)NCCC(=O)O)cc1	-1.5	2%	·	·	-4
C=CCn1c(SCc2nc3ccccc3c(=O)[nH]2)nnc1-c1cc2cc(Cl)ccc2o1	0.4	3%	-16	-12	-6
Cc1cc(C)c(C(=O)C(C)OC(=O)Cc2n[nH]c(=O)c3ccccc23)cc1C (centres undefined)	2.8	·	·	·	-12
Cc1ccc(S(=O)(=O)CC(=O)Nc2nc(-c3ccccc3)cs2)cc1	4.8	5%	-22	15	46
Cc1cc(C)c(-c2csc(Cc3nc(-c4cc5ccccc5oc4=O)cs3)n2)cc1C	4.1	7%	-15	8	10
COc1ccc(NC(=O)c2ccc(COc3ccccc3Br)o2)cc1OC	16	0%	-2	-35	55
COc1ccc(-c2nc(CS(=O)CC(=O)NCc3ccc4c(c3)OCO4)c(C)o2)cc1 (centres undefined)	1.6	2%	-28	0	-4	Arbovirus inh repeat=-10
NC(=O)c1sc2nc3c(cc2c1N)CCC3	-0.7	7%	·	22	-7
CCc1ccc(NC(=S)N(CCOC)C2CCN(C(C)=O)CC2)cc1	-0.5	·	·	·	1
COc1ccccc1C(=O)C1CCCN(C(=O)c2cc(CC(C)C)nc(C)n2)C1 (centres undefined)	1.7	9%	·	6	-1
O=c1c2ccccc2[se]n1-c1ccccc1	-0.9	-8%	-23	-37	49
COc1ccc(NC(=O)CSc2nnnn2-c2ccccc2F)cc1	-1.4	·	·	·	-14
N#CC1=C(N)c2ccccc2CC12CCCCC2	5.9	6%	8	-18	-3
CCC(=O)Nc1ccc(C(=O)OCc2ccc(Cl)c(Cl)c2)cc1	-1.2	10%	-24	2	7
CCc1ccc(NC(=O)Cn2c(=O)oc3cc(S(=O)(=O)N4CCOCC4)ccc32)cc1	0.3	2%	-30	12	0	Arbovirus inh repeat=4
(list continues)
SMILES	RecA intein inh	Mtb growth	YopH PTP inh	Arbovirus inh	Mtb betalactam	others
CCc1nc2ccccc2n(CC)c1=O	0.8	4%	-34	8	-5
Cc1ccc(OCCNC(=O)c2cc(-n3cnnc3)ccc2Cl)cc1C	2.9	1%	-18	4	4
COc1ccc(C(O)c2coc3ccc(O)c(CN(C)C)c23)cc1 (centres undefined)	-0.6	-5%	-15	1	-2
CCOc1ncccc1C(=O)OCC(=O)c1cccs1	-0.1	2%	-25	3	·
OCC[C@@H]1C[C@H](O)[C@@H](O)[C@@]2(Cc3ccccc3O2)O1	-0.7	·	·	·	-7
COc1cc(/C=C2/S/C(=N/S(=O)(=O)c3ccccc3)NC2=O)c([N+](=O)[O-])cc1OC	-12	-13%	-27	2	-1
CC(C)(C)NCC(O)Cn1cc(C=O)c2ccccc21 (centres undefined)	0.3	-2%	·	5	5
NC(=O)c1ccc2c(=O)n3c(-c4cc(Cl)c(N)c(Cl)c4)csc3nc2c1	1.8	-8%	·	·	-3
O=c1oc(-c2ccccc2F)nc2c1cnn2-c1ccccc1	2.8	51%	4	6	99
Cc1onc(-c2c(F)cccc2Cl)c1C(=O)N1CCc2ccccc21	3.4	4%	-29	-6	-5
Cc1cccc(CN2[C@@H](CC(C)C)COCCS2(=O)=O)c1	1.1	3%	·	·	-4
CCOC(=O)c1ccc(NC(=O)CCC(CC)C(=O)O)cc1 (centres undefined)	1.4	-7%	-40	-1	13
COc1ccc([N+](=O)[O-])cc1/C=N/NC(=O)CNC(=O)c1cccc(F)c1	2.5	2%	-70	-10	8
COc1ccccc1-c1c(C)nn2c(N3CCCCCC3)cc(C)nc12	9.2	57%	81*	6	20	Arbovirus inh repeat=-17
C=CCn1c(O)c(C(C)=Nc2ccc(N(CC)CC)cc2)c(=O)[nH]c1=O	-1.2	9%	-32	-22	19
COc1cc2c(cc1OC)CN(C(=O)CN1C(=O)c3ccc([N+](=O)[O-])cc3C1=O)CC2	-8.1	·	·	·	-10
CCCn1c(O)c(/C=C2\C=NN=C2c2ccccc2)sc1=S	0.6	-5%	-41	4	91
CSc1ccccc1C(=O)C1CCCN(S(=O)(=O)c2c(C)noc2C)C1 (centres undefined)	1.9	3%	·	-2	-2
COc1ccccc1Cc1nc(-c2cccnc2)no1	2.2	-4%	·	·	-6
CC(=O)Nc1sc(N/N=C\c2ccccc2)nc1-c1cccs1	3.1	1%	-8	-7	-12
CC(=O)Nc1ccc(S(=O)(=O)Nc2ccc(S(=O)(=O)N3CCCCCC3)cc2)cc1	1.4	-18%	21	-1	-10
CC(C)C(C)NC(=O)COC(=O)c1cc(S(=O)(=O)N(C)C)ccc1N1CCCC1 (centres undefined)	-1.4	5%	·	-7	2
Cc1ccc(C)c(S(=O)(=O)N2CCN(C(=O)c3ccncc3)CC2)c1	-0.4	·	·	·	0
O=[N+]([O-])c1ccccc1S(=O)(=O)Nc1ncccn1	0.3	·	·	·	2
C=CCn1c(SCC(=O)Nc2cc(NC(C)=O)ccc2OC)nnc1-c1cccnc1	-4.3	-9%	-32	-1	-12
Cc1ccn2cc(CCNS(=O)(=O)c3ccc4ccccc4c3)nc2c1	0.1	·	·	·	-5
O=C1c2ccccc2C(=O)C12OC(c1ccccc1)C1(C(=O)c3ccccc3C1=O)C2c1ccc([N+](=O)[O-])cc1 (centres undefined)	1.7	-6%	-23	-4	3
CC[n+]1c(C)sc2sc3ccccc3c21	0.1	·	·	·	2
S=C(Nc1ccc(Cl)cc1Cl)NC1CCCCC1	8.9	-3%	-36	0	-5
O=S(=O)(Nc1ccc(-c2cn3c(n2)SCC3)cc1)c1ccccc1F	-1.3	·	·	·	-12
Cn1nnnc1SCC(=O)NNC(=O)c1ccc(Cl)cc1	-1.0	-8%	·	-7	-10

Entries shown so far containing a Cl atom (15):
SMILES	RecA intein inh	Mtb growth	YopH PTP inh	Arbovirus inh	Mtb betalactam	others
Cc1cc(Cl)ccc1OCCCC(=O)NN	9.4	-2%	·	-11	12
Cc1nc2c(C(=O)N3CCOCC3)cnn2c(C)c1Cc1ccc(Cl)cc1	2.6	-7%	-43	4	3
COc1ccc(Cl)cc1S(=O)(=O)N1CCCc2ccccc21	5.2	·	·	·	5
Cc1cc(NC(=O)Nc2cc(Cl)ccc2C)no1	2.8	-5%	·	·	0
Cc1nnc2c3ccccc3c(Cl)nn12	-0.5	-1%	·	0	9
CC1CN=C(c2cccn2Cc2ccc(F)cc2Cl)O1 (centres undefined)	2.5	·	-24	-2	1
CN(CC(=O)Nc1ccc(Cl)c(C(F)(F)F)c1)C(=O)c1cn2ccccc2n1	2.7	·	·	·	-6
CCN(CC)CCN(Cc1cc2ccc(C)cc2[nH]c1=O)C(=O)Nc1ccc(Cl)cc1	-0.9	3%	·	-29	12
C=CCn1c(SCc2nc3ccccc3c(=O)[nH]2)nnc1-c1cc2cc(Cl)ccc2o1	0.4	3%	-16	-12	-6
CCC(=O)Nc1ccc(C(=O)OCc2ccc(Cl)c(Cl)c2)cc1	-1.2	10%	-24	2	7
Cc1ccc(OCCNC(=O)c2cc(-n3cnnc3)ccc2Cl)cc1C	2.9	1%	-18	4	4
NC(=O)c1ccc2c(=O)n3c(-c4cc(Cl)c(N)c(Cl)c4)csc3nc2c1	1.8	-8%	·	·	-3
Cc1onc(-c2c(F)cccc2Cl)c1C(=O)N1CCc2ccccc21	3.4	4%	-29	-6	-5
S=C(Nc1ccc(Cl)cc1Cl)NC1CCCCC1	8.9	-3%	-36	0	-5
Cn1nnnc1SCC(=O)NNC(=O)c1ccc(Cl)cc1	-1.0	-8%	·	-7	-10
